FGF22 binding: shifts melting point of recombinant human FGF22; actives 1.5% (n = 340,000); calls only at 9.99 µM; recombinant FGF22 thermal shift, SYPRO orange fluorescence; percent of sucrose octasulfate shift, DMSO zero;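 active means melting point raised past a set limit in the mean and every replicate; three in four hits are not shown here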
Target sequence (Q9HCT0 whole entry, looked up): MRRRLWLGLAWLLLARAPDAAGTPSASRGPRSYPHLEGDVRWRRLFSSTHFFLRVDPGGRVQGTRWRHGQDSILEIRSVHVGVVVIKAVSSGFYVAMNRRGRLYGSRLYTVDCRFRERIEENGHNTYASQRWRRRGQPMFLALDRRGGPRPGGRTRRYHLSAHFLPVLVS
AF4-AF9 inh: blocks AF4 peptide binding to human AF9; actives 0.47% (n = 350,000); AID 651704; AlphaScreen, biotin-AF4 peptide binding to FLAG-AF9; inhibition, % at 10 µM;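 active means every replicate reaching a set inhibition limit, whatever the replicate mean, cut at about 25% in these data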;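 further: 0% = plate neutral control median and 100% = total signal loss; the record names both 10 and 1 µM as test concentration; the first replicate is given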
Target sequence (P42568 whole entry, looked up): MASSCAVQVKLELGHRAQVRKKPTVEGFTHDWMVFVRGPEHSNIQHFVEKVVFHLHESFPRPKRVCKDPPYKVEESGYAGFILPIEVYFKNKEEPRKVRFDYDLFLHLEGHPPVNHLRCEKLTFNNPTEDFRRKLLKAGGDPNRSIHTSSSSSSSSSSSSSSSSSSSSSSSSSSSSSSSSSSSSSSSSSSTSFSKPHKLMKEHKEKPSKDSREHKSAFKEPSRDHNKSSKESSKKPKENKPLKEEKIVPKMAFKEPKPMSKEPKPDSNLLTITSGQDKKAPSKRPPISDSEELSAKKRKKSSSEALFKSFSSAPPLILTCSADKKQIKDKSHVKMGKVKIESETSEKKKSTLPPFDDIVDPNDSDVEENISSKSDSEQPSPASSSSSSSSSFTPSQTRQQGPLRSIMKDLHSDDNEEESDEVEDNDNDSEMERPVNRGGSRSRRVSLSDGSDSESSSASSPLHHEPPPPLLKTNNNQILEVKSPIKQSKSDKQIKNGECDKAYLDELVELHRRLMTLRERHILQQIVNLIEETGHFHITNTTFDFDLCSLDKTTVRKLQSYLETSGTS
* hit, by the source's call; i = inactive; & = joins results of further samples. An excerpt; rates above refer to the full screens.

SMILES	FGF22 binding	AF4-AF9 inh
O=C(C[C@H]1CC[C@@H](NC(=O)C2CCOCC2)[C@@H](CO)O1)Nc1nccs1	i	1.2
C[C@H]1CN([C@@H](C)CO)C(=O)c2cc(/C=C/c3ccccc3)cnc2O[C@@H]1CN(C)Cc1cccnc1	i	7.4
C[C@H](CO)N1C[C@H](C)[C@@H](CN(C)S(=O)(=O)c2ccccc2)Oc2ccc(NC(=O)CCN3CCOCC3)cc2CC1=O	i	0.8
C[C@@H]1CCCCO[C@@H](CN(C)C(=O)Nc2cccc3ccccc23)[C@@H](C)CN([C@H](C)CO)C(=O)c2cc(NC(=O)Nc3ccc(F)cc3)ccc2O1	i	-1.3
COc1ccc(NC(=O)N2C[C@@H](O)COC[C@@H]3O[C@@H](CC(=O)N4CCOCC4)CC[C@H]32)cc1	i	1.9
CO[C@@H]1CN(C)C(=O)c2ccc(NC(=O)Nc3ccccc3)cc2OC[C@H](C)N(CC2CC2)C[C@@H]1C	i	5.6
CCCNC(=O)Nc1ccc2c(c1)OC[C@@H](C)N(Cc1ccccc1)C[C@@H](C)[C@@H](OC)CN(C)C2=O	i	-0.2
CCS(=O)(=O)N1CCCCN2[C@H](CO)[C@H](c3ccc(-c4ccccc4C)cc3)[C@H]2C1	i	-1.5
O=C(NCCN1CCCC1)[C@@H]1N[C@@H]2c3ccc(C4=CCCCC4)c(=O)n3C[C@@H]2[C@H]1CO	i	10
CC=Cc1ccc2n(c1=O)C[C@H]1[C@H](CO)[C@@H](C(=O)NC3CCC3)[C@@H]2N1Cc1cccnc1 (mixture of isomers)	i	2.1
C/C=C/c1ccccc1[C@@H]1[C@H](C#N)N(C(=O)Cc2ccccn2)[C@H]1CO	i	4.9
C[C@H]1CN([C@@H](C)CO)S(=O)(=O)c2ccc(-c3ccncc3)cc2O[C@H]1CN(C)Cc1ccccc1	i	4.1
C[C@H]1CN([C@@H](C)CO)C(=O)Cc2cc(NC(=O)CCN3CCOCC3)ccc2O[C@H]1CN(C)C(=O)Nc1ccccc1	i	-2.6
COC(=O)C[C@H]1CC[C@H]2[C@H](COc3ccc(NS(=O)(=O)c4ccc(C)cc4)cc3C(=O)N2C)O1	i	0.9
C[C@@H]1CN([C@@H](C)CO)C(=O)Cc2cc(NC(=O)Nc3ccc(F)cc3)ccc2O[C@@H]1CN(C)C(=O)Nc1ccccc1	i	2.1
C/C=C/c1ccc([C@@H]2[C@@H](CO)N3CCCCN(C(=O)Nc4cc(F)ccc4F)C[C@@H]23)cc1	i	3.1
COc1ccc(S(=O)(=O)N(C)C[C@H]2Oc3ccc(NS(C)(=O)=O)cc3CC(=O)N([C@@H](C)CO)C[C@@H]2C)cc1	i	-2.4
Cc1noc(C)c1S(=O)(=O)N(C)C[C@@H]1Oc2ccc(NC(=O)CCC(F)(F)F)cc2CC(=O)N([C@H](C)CO)C[C@H]1C	i	0.1
C[C@H]1CN([C@@H](C)CO)S(=O)(=O)c2ccc(C#Cc3ccncc3)cc2O[C@@H]1CN(C)C(=O)C1CCC1	i	13
O=C(NCC[C@H]1CC[C@H](NC(=O)C2CCCCC2)[C@H](CO)O1)Nc1ccc(Cl)cc1	i	3.0
COc1ccc(-c2cnc3c(c2)C(=O)N([C@H](C)CO)C[C@H](C)[C@H](CN(C)C(=O)Nc2cccc4ccccc24)O3)cc1	i	4.9
C[C@H](CO)N1C[C@H](C)[C@@H](CN(C)S(=O)(=O)c2cccs2)Oc2ccc(NS(=O)(=O)c3ccc(Cl)cc3)cc2C1=O	i	-1.2
CO[C@H]1CN(C)C(=O)c2ccc(NC(=O)Nc3c(C)noc3C)cc2OC[C@H](C)NC[C@H]1C	i	-1.5
O=C(C[C@H]1CC[C@H]2NC[C@@H](O)COC[C@@H]2O1)NCCc1ccccc1	i	-1.3
CN1C(=O)c2cc(NS(=O)(=O)c3ccc(F)cc3)ccc2OC[C@@H]2O[C@@H](CC(=O)NCC(F)(F)F)CC[C@@H]21	i	2.9
CC=Cc1ccc2n(c1=O)C[C@@H]1[C@@H](CO)[C@H](C(=O)N[C@H](C)c3ccccc3)[C@H]2N1CC (mixture of isomers)	i	1.3
O=C(Nc1ccccc1F)N1C[C@H]2[C@@H](c3ccccc31)[C@H](CO)N2C(=O)C1CCCC1	i	1.3
C[C@H](CO)N1C[C@H](C)[C@H](CN(C)C)Oc2ccc(NS(=O)(=O)c3ccc(Cl)cc3)cc2C1=O	i	-18
O=C(c1cccc(F)c1)N1CCCCN2[C@@H](CO)[C@@H](c3ccc(-c4ccc(F)cc4)cc3)[C@@H]2C1	i	7.9
CO[C@H]1CC[C@H]2CCN(C)C(=O)[C@H](C)[C@H](OC)CN(C)C(=O)c3cccc(C#N)c3OC[C@@H]1O2	i	-2.6

6 entries already listed, arranged by number of heavy atoms, highest first:
SMILES	FGF22 binding	AF4-AF9 inh
COc1ccc(-c2cnc3c(c2)C(=O)N([C@H](C)CO)C[C@H](C)[C@H](CN(C)C(=O)Nc2cccc4ccccc24)O3)cc1	i	4.9
C[C@H](CO)N1C[C@H](C)[C@@H](CN(C)S(=O)(=O)c2cccs2)Oc2ccc(NS(=O)(=O)c3ccc(Cl)cc3)cc2C1=O	i	-1.2
CN1C(=O)c2cc(NS(=O)(=O)c3ccc(F)cc3)ccc2OC[C@@H]2O[C@@H](CC(=O)NCC(F)(F)F)CC[C@@H]21	i	2.9
CO[C@H]1CC[C@H]2CCN(C)C(=O)[C@H](C)[C@H](OC)CN(C)C(=O)c3cccc(C#N)c3OC[C@@H]1O2	i	-2.6
CO[C@H]1CN(C)C(=O)c2ccc(NC(=O)Nc3c(C)noc3C)cc2OC[C@H](C)NC[C@H]1C	i	-1.5
O=C(Nc1ccccc1F)N1C[C@H]2[C@@H](c3ccccc31)[C@H](CO)N2C(=O)C1CCCC1	i	1.3

Next entries follow:
SMILES	FGF22 binding	AF4-AF9 inh
CCCNC(=O)N(C)C[C@H]1Oc2ncc(C#CC3CC3)cc2C(=O)N([C@H](C)CO)C[C@@H]1C	i	-1.2
COc1ccc(S(=O)(=O)Nc2ccc3c(c2)C(=O)N([C@@H](C)CO)C[C@H](C)[C@@H](CN(C)S(=O)(=O)c2ccc(Cl)cc2)OCCCC[C@@H](C)O3)cc1	i	-0.9
C[C@H](CO)N1C[C@H](C)[C@H](CN(C)C(=O)Nc2ccc(F)cc2)OCCCC[C@H](C)Oc2ccc(NC(=O)Nc3ccc4c(c3)OCO4)cc2C1=O	i	3.7
O=C(C1CCOCC1)N1CC(=O)N2[C@H](CO)[C@H](c3ccc(C#Cc4cccc(F)c4)cc3)[C@@H]2C1	i	-0.2
CN1C[C@@H]2[C@H](c3ccccc31)[C@H](CO)N2S(=O)(=O)c1ccccc1	i	-6.1
CC(C)C[C@H]1COc2cc(Br)ccc2S(=O)(=O)N1Cc1cccc(Cl)c1	i	-3.0
C[C@@H]1CN([C@H](C)CO)C(=O)c2cccc(NS(=O)(=O)c3cn(C)cn3)c2O[C@H]1CN(C)CC1CC1	i	-2.9
C[C@H](CO)N1C[C@H](C)[C@H](CN(C)S(C)(=O)=O)Oc2cc(-c3cccc(F)c3)ccc2S1(=O)=O	i	0.2
COCCNC(=O)[C@H]1[C@H](CO)[C@H]2Cn3c(cccc3=O)[C@@H]1N2S(=O)(=O)c1ccccc1C	i	-2.9
CN(C)c1ccc2c(c1)[C@@H]1C[C@H](CC(=O)NCc3ccc(Oc4ccccc4)cc3)O[C@H](CO)[C@@H]1O2	i	9.6
C[C@H](CO)N1C[C@H](C)[C@@H](CN(C)C(=O)CN(C)C)Oc2cc(-c3ccncc3)ccc2S1(=O)=O	i	-1.7
C[C@@H]1CN([C@H](C)CO)C(=O)Cc2cc(NC(=O)Cc3cn(C)c4ccccc34)ccc2O[C@@H]1CN(C)Cc1ccc(C(=O)Nc2ccccc2N)cc1	i	3.0
CC(=O)N(C)C[C@@H]1Oc2cc(C#Cc3ccccc3)ccc2S(=O)(=O)N([C@H](C)CO)C[C@@H]1C	i	2.1
C[C@@H](O)C#Cc1ccc([C@@H]2[C@H]3CN(C(=O)Nc4ccccc4)CCCCN3[C@H]2CO)cc1	i	-15
CCC(=O)N1[C@H](CNC(=O)CN(C)C)[C@@H](c2ccc(C3=CCCC3)cc2)[C@@H]1CO	i	4.4
O=C(NCC[C@@H]1CC[C@H](NC(=O)C2CCC2)[C@H](CO)O1)c1cnccn1	i	-2.6
Cc1noc(C)c1S(=O)(=O)N(C)C[C@@H]1Oc2ccc(NS(=O)(=O)c3ccc(F)cc3)cc2CC(=O)N([C@@H](C)CO)C[C@@H]1C	i	4.7
C[C@@H]1CN([C@@H](C)CO)C(=O)c2cccc(NC(=O)C3CC3)c2O[C@@H]1CN(C)Cc1ccc(-c2ccccc2)cc1	i	-0.2
CS(=O)(=O)N1[C@@H]2CNC[C@H]1C2c1ccc(-c2ccccc2)cc1 (stereo not given in full)	i	4.9
OC[C@H]1CC[C@@H]2O[C@H](CCc3ccc(C#CCc4ccccc4)cc3)[C@@H](n3cc(-c4ccccc4)nn3)C[C@@H]2O1	i	-1.6
C[C@H](CO)N1C[C@H](C)[C@H](CN(C)S(=O)(=O)c2ccc(F)cc2)Oc2ccc(NC(=O)Nc3ccc(F)cc3)cc2C1=O	i	4.2
O=C(C[C@H]1C=C[C@H](NC(=O)Nc2ccccc2F)[C@H](CO)O1)NCc1ccc(-c2ccccc2)cc1	i	-17
C[C@H](CO)N1C[C@H](C)[C@H](CN(C)S(=O)(=O)c2ccc(Cl)cc2)Oc2c(NC(=O)CCCCCC(=O)Nc3ccccc3N)cccc2C1=O	i	-11
CCCCOCC1CN(CCCC)S(=O)(=O)c2c(cccc2N2CCCC2)O1 (stereo not given)	i	2.5
C[C@H]1CN([C@@H](C)CO)C(=O)c2cc(N(C)C)ccc2O[C@@H]1CN(C)Cc1ccc(-c2ccccc2)cc1	i	40*
O=C(CCN1CCCCC1)N[C@@H]1CC[C@H](CCNS(=O)(=O)c2ccccc2)O[C@@H]1CO	i	2.3
O=C(Nc1ccc(F)cc1)N[C@@H]1CC[C@@H](CCn2cc(C3(O)CCCC3)nn2)O[C@H]1CO	i	0.8
O=C(C[C@@H]1CC[C@@H]2[C@H](COC[C@H](O)CN2Cc2cccc(Cl)c2)O1)N1CCCCC1	i	-7.6
CC(=O)N1CC(=O)N2[C@H](C1)[C@@H](c1ccc(C#CC(C)C)cc1)[C@@H]2CO	i	-0.5
CCC(=O)N1CCC2(CC1)CN(Cc1cc(F)ccc1F)[C@@H](CO)c1[nH]c3cc(OC)ccc3c12	i	-1.9
COc1ccc2c3c([nH]c2c1)[C@H](CO)N(S(=O)(=O)c1ccc(C)cc1)CC31CN(C(=O)Cc2cccnc2)C1	i	-0.1
CCN(C[C@H]1[C@H](c2ccccc2)[C@@H](CO)N1C(C)=O)C(=O)c1cccc(F)c1	i	-0.5
C[C@@H]1CN([C@H](C)CO)S(=O)(=O)c2ccc(C#Cc3ccccn3)cc2O[C@H]1CN(C)C(=O)C1CC1	i	-1.7
C[C@@H]1CN([C@H](C)CO)C(=O)c2cc(NC(=O)CCCCCC(=O)Nc3ccccc3N)ccc2O[C@H]1CN(C)S(=O)(=O)c1cccs1	i	-2.8
CCN1[C@@H]2c3ccc(-c4ccc(OC)cc4)c(=O)n3C[C@@H]2[C@@H](CO)[C@@H]1C(=O)NCCN1CCCCC1	i	2.5
C[C@@H]1CN([C@H](C)CO)C(=O)Cc2cc(NS(C)(=O)=O)ccc2O[C@H]1CN(C)Cc1ccc2c(c1)OCO2	i	-3.0
CCCN(C)C[C@@H]1Oc2ncc(C#CCN(C)C)cc2C(=O)N([C@H](C)CO)C[C@@H]1C	i	2.6&4.0
CC(C)CC#Cc1ccc2c(c1)O[C@@H](CN(C)C(=O)c1cccc(F)c1)[C@@H](C)CN([C@H](C)CO)S2(=O)=O	i	1.1
COCC(=O)Nc1ccc2c(c1)[C@H]1C[C@@H](CC(=O)NCc3cccc(F)c3)O[C@@H](CO)[C@H]1O2	i	0.8
C[C@@H]1CN([C@@H](C)CO)C(=O)c2cc(C#CC3CCCCC3)cnc2O[C@H]1CN(C)S(=O)(=O)c1ccccc1	i	3.2
CCCC#Cc1ccc([C@@H]2[C@H]3CN(C(=O)NC4CCCC4)CCCCN3[C@H]2CO)cc1	i	-8.8
C[C@@H]1CN([C@H](C)CO)C(=O)c2cc(NC(=O)C3CCCCC3)ccc2O[C@H]1CN(C)C(=O)Nc1ccc2c(c1)OCO2	i	-13
CN1[C@@H]2Cn3c(ccc(-c4ccc(F)cc4)c3=O)[C@H]1[C@@H](C(=O)N1CCCCC1)[C@@H]2CO	i	0.6
CCCC#Cc1ccc2c(c1)O[C@@H](CN(C)C(=O)c1cnccn1)[C@H](C)CN([C@H](C)CO)S2(=O)=O	i	0.0
CC(C)NC(=O)N(C)C[C@@H]1Oc2ncc(C#Cc3ccncc3)cc2C(=O)N([C@H](C)CO)C[C@H]1C	i	-3.7
N#C[C@H]1[C@@H](c2ccc(C#Cc3cccc(F)c3)cc2)[C@@H](CO)N1C(=O)C1CC1	i	-3.8
CO[C@@H]1CN(C)C(=O)c2cc(NS(=O)(=O)CC(F)(F)F)ccc2OC[C@H](C)N(C(=O)c2ccc3c(c2)OCO3)C[C@H]1C	i	-1.0
O=C(Nc1ccccc1F)N[C@@H]1CC[C@H](CCNS(=O)(=O)c2ccc(F)cc2)O[C@@H]1CO	i	-0.6
CC(C)COC(=O)N(C)C[C@H]1OCc2cn(nn2)CCCC(=O)N([C@@H](C)CO)C[C@H]1C	i	2.9

A portion of the results above:
SMILES	FGF22 binding	AF4-AF9 inh
CCCC#Cc1ccc([C@@H]2[C@H]3CN(C(=O)NC4CCCC4)CCCCN3[C@H]2CO)cc1	i	-8.8
C[C@@H]1CN([C@H](C)CO)C(=O)c2cc(NC(=O)C3CCCCC3)ccc2O[C@H]1CN(C)C(=O)Nc1ccc2c(c1)OCO2	i	-13

Assay outcomes: PubChem, Broad Institute
